Assay outcomes from PubChem BioAssay.
Tgondii IFNg = inhibitors of Toxoplasma gondii growth with IFN-gamma. Toxoplasma gondii growth in IFN-gamma-treated host cells; stronger effect = lower value; reference of the scale not given here. activity change, negative = inhibition, %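 (about 20 µM by stock and volumes)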. 69,000 compounds, 3.8% hits. AID 1259416;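 active = below -70%; inconclusive = fit judged invalid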;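 also: host cells are HeLa cells infected with Toxoplasma gondii; parasite growth read as luciferase light; one replicate is shown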
* marks the source's active call; other numbers are inactive results; i = inactive; ? = inconclusive; & = joins results of further samples. This is a subset; rates above refer to the full screens.

SMILES	Tgondii IFNg
Cn1nc(C(=O)NC(C)(C)C)c2ccccc2c1=O	13
Cc1sc2ncn(C(C)C(=O)O)c(=O)c2c1C (stereo unspecified)	-8
c1cncc(-c2nc3cc4sc(-c5cccnc5)nc4cc3s2)c1	45
CCc1cnc(C)nc1-c1ccc(-c2ccn[nH]2)cc1	-1
O=S(=O)(NCCc1csc(-c2cccc(F)c2)n1)c1ccccc1	-57
Cc1noc(-c2cc(=O)n(CC(=O)Nc3ccc(Cl)cc3)c3ccccc23)n1	2
O=C(NC1CC1)C1CNCCN1C(=O)c1cccc2cnccc12 (stereo unspecified)	11
CC(=O)O[C@H]1CC[C@@]2(C)C(C[C@@H](OC(C)=O)[C@@]3(C)C4=CC(=O)O[C@@H](c5ccoc5)[C@]4(C)CCC23)C1(C)C (stereo partly specified)	-22
CC(C)c1nc(N2CCCC(O)(CN(C)C)CC2)no1 (stereo unspecified)	-1
CN(Cc1cc(-c2cccs2)n[nH]1)C(=O)C1=NNC(=O)CC1	0
O=C(C[C@H]1CC[C@@H]2[C@H](COC[C@H](O)CN2C(=O)c2cccnc2)O1)NCC1CC1	-28
Cn1c(=O)c2c(ncn2CC(=O)N2CCCC2)n(C)c1=O	8
Cc1ccc2nc(SCC(=O)N3Cc4cnn(CCO)c4C3)[nH]c2c1	-3
O=C(NCCc1csc(-c2cccc(F)c2)n1)c1ccccc1C(F)(F)F	19
Cn1ncc2c1C(COCC1CC1)CN(C(=O)c1ccccn1)C2 (stereo unspecified)	4
COCCN1Cc2nccn2CC(CN(C)Cc2ccco2)C1 (stereo unspecified)	-18
CC(=O)c1cccc(-c2ccc(C(=O)N3CCC(CN4CCCC4=O)CC3)cn2)c1	108
CC1(C)C(=O)NC2=C1C(=O)C(=O)c1ccccc12	-82*
Cc1nc(SCC(=O)N2CCCC(c3nc4ccccc4cc3C(N)=O)C2)oc1C (stereo unspecified)	63
Cc1nc(CN2CCN(C)C(=O)C23CCN(Cc2ccc(C(C)C)cc2)CC3)cs1	-12
O=C(NCc1ccccc1Cl)c1c(O)c2cccnc2n(-c2cccc(F)c2)c1=O	96
Clc1ccc(-n2ncc3c(NCc4cccc(Cl)c4)ncnc32)cc1	-41
Cn1c2ccccc2c2c1cc(C(=O)Cc1ccccn1)n2-c1ncccn1	97
O=C(C[C@@H]1CC[C@H](NC(=O)c2ccc(F)cc2)[C@H](CO)O1)NCCc1ccccc1	-3
CCOc1ccc(C(=O)NCCc2sc(-c3ccc(C)cc3)nc2C)cc1	2
CC1=C(C(=O)Nc2ccc(C)cc2Cl)C2(CCN(Cc3ccccc3)CC2)OC1=O	-47
Cc1oc(-c2ccc(C(=O)NCCCc3ccccc3)cc2)nc1CN1CCc2ccccc21	122
Cc1ccc(-c2nc(CNC(=O)C3[C@H]4CNC[C@@H]34)[nH]c2-c2ccccn2)cc1 (stereo partly specified)	2
Cc1cc(C)nc(N2CCC(O)(CN3CCCC3)CC2)n1	4
Cc1cc(C)nc(C2CCN(C(=O)c3ccc(=O)n(C)c3)C2)n1 (stereo unspecified)	19
Cc1cc(C(=O)Nc2ccc3c(c2)C(=O)N(C)[C@@H]2CC[C@@H](CC(=O)O)O[C@H]2CO3)no1	14
COc1ccc(CN(C)C2CCN(C(=O)C(C)C)CC2)c2cccnc12	-8
CC(C)Oc1ccc(-c2cccc(F)c2C(N)=O)cc1	8
CC(=O)NCCOc1ccc(C(=O)N2CCOC(C(F)(F)F)C2)cc1 (stereo unspecified)	-44
COc1cc(C)c(C(=O)Oc2cc(C)c(C(=O)O)c(O)c2C)c(OC)c1C	7
CCc1cnc(N2Cc3c(C(=O)N(C)C)nn(C)c3C2)nc1	10
CC(C)N(C)Cc1ncn2c1CN(C(=O)NCc1cccc(F)c1)CCC2	-5
Cc1ccsc1CN(C)c1ncnc2c1CCN(C(=O)c1cccnc1)C2	-6
COCc1nc(N2CC(Oc3c(C)cccc3C)C2)c2cnn(C)c2n1	43
COc1ccccc1CN1CCC2(CC1)CC(NS(C)(=O)=O)CCO2 (stereo unspecified)	-7
O=C1[C@@H]2C[C@H](O)CCN2C(=O)CN1CCCn1ncc2ccccc21	-6
Nc1nc(N)nc(-c2ccccc2C(F)(F)F)n1	-19
O=C(CN1C2CCCC1CC(NC(=O)c1ccccc1)C2)Nc1ccccc1C(F)(F)F (stereo unspecified)	-7
COc1ccc(S(=O)(=O)N2CCN(C(=O)CC(C)C)CC2)cc1	10
C=CCc1cc(CN2CCN3CCN(C)C(=O)C3C2)cc(OC)c1O (stereo unspecified)	12
Cc1ccsc1-c1nccn1CCc1ccco1	10
COC(=O)c1ccc(NC(=O)C(=O)NCCc2csc(-c3cccc(F)c3)n2)cc1	24
Cc1noc(-c2ccc(Oc3ccc(CN4CCCC4)cc3F)nc2)n1	-9
COc1ccc2c3c([nH]c2c1)[C@@H](CO)N(Cc1ccccc1Cl)CC31CN(C(=O)C2CC2)C1	?
CCC1c2cccn2CCN1C(=O)c1cccc(C#CC(C)(C)O)c1 (stereo unspecified)	-16
Cc1cc(C)n(-c2ncc(C#N)c(N)n2)n1	22
Cc1cccc(OC2CN(c3nc(-c4ccccn4)nc4c3CCNC4)C2)c1	-17
CCn1c(C(C)C)nc2cc(N)ccc21	202
CO[C@@H](CN(C)Cc1cc(F)ccc1F)[C@@H](C)CN(C(=O)Nc1ccc(C(F)(F)F)cc1)[C@H](C)CO	-48
Cc1c(Cc2ccccc2)sc(NC(=S)Nc2ccc(F)cc2)c1C(N)=O	18
Cc1ccc(-c2nc3c(s2)CN(C(=O)NCc2ccccc2)CC3)cc1	-35
Cc1ccc(N2CCc3ncnc(N(C)C)c3CC2)nn1	3
COc1ccc(CN2CCC3(CCN(S(=O)(=O)Cc4ccccc4)C3)C2)cc1F (stereo unspecified)	-1
CC(C)(C)C(=O)c1sc2sc(C(=O)C(C)(C)C)c(N)c2c1N	19
OCc1ccccc1-c1nnnn1-c1ccccc1	-1

Some of the entries so far, field by field:
> Cc1cc(C)n(-c2ncc(C#N)c(N)n2)n1
- Tgondii IFNg: 22
> Cc1ccsc1-c1nccn1CCc1ccco1
- Tgondii IFNg: 10
> Cc1c(Cc2ccccc2)sc(NC(=S)Nc2ccc(F)cc2)c1C(N)=O
- Tgondii IFNg: 18
> COc1ccccc1CN1CCC2(CC1)CC(NS(C)(=O)=O)CCO2 (stereo unspecified)
- Tgondii IFNg: -7

Next part:
SMILES	Tgondii IFNg
Cc1ccc2c(c1)NC1(CCN(C(=O)NCCc3ccccc3)CC1)c1cccn1-2	80
CCc1cccc(NC(=O)c2c(O)c3ccccc3n(-c3ccccc3)c2=O)c1	56
Cc1ccc(C2=NC3(CCN(Cc4cc(C)ccc4C)CC3)NC2=O)cc1	-16
NC1(C(=O)N[C@@H](CCO)c2ccc(Cl)cc2)CCN(c2ncnc3[nH]ccc23)CC1	9
COCCN(C)C(=O)c1cc2c(s1)CCN2C(=O)C1CC1	-14
COc1ccc(OC)c(CNC(=O)c2nc(N3CCOCC3)c3ccccc3n2)c1	-40
CCCC(C(=O)NC1CCN(S(C)(=O)=O)CC1)n1cccc1 (stereo unspecified)	-2
O=C(c1ccco1)N1CCCn2nnc(COCCN3CCCC3)c2C1	12
Cc1ccc(S(=O)(=O)N(C)c2cncc(C(=O)N3CCN(c4ccccn4)CC3)c2)cc1	2
Cc1cc(C(F)F)n2ncc(C(=O)N3CCN(Cc4ccco4)C[C@@H]3C(C)C)c2n1	38
Cc1noc(C)c1NC(=O)Nc1ccc2c(c1)C(=O)N([C@@H](C)CO)C[C@@H](C)[C@H](CN(C)Cc1ccc3c(c1)OCO3)OCCCC[C@@H](C)O2	75
O=C(C[C@@H]1C=C[C@H](NC(=O)c2cnccn2)[C@@H](CO)O1)NCc1ccccc1F	-25
O=C(CC1CC2(CCN(C(=O)Nc3cccc(F)c3)CC2)Oc2ccccc21)NC1CC1 (stereo unspecified)	-48
Cc1nc(-c2cccnc2)ncc1C(=O)N(C)CCC(O)c1ccccc1 (stereo unspecified)	-1
COCCC(=O)N1CC2(CCN(Cc3ccsc3)C2)C1	1
CC(C)CC(NC(=O)c1cnccn1)c1nnc2n1CCNCC2 (stereo unspecified)	7
CC(=O)NCCc1csc(C2CCCN(C(=O)c3cc(Cl)ccc3F)C2)n1 (stereo unspecified)	-13
Cc1c(Cl)cccc1NC(=O)Cn1c(=O)cc(C(=O)N2CCCC2)c2ccccc21	7
CSc1ccc2cc(CN(C)Cc3ccncc3C)c(=O)[nH]c2c1	-1
Cc1nc(-c2ccccn2)sc1C(=O)Nc1ccc2c(c1)nc(C(C)C)n2C	-11
COc1ccc2c3c([nH]c2c1)[C@H](CO)N(C(C)=O)CC31CN(S(=O)(=O)c2cccs2)C1	-16
O=C(NCc1cccnc1)c1cnc2ccccc2n1	19
CCOC(=O)c1ccc(NC(=S)NN2CCN(C)CC2)cc1	-12
CC(C)N(C)[C@@H]1c2ccccc2[C@H]2CN(C(=O)N(C)C)C[C@H]21	-1
CC(=O)N1CCC2(CC1)OC(=O)C(C)=C2C(=O)NC1CCCC1	123
O=C1N[C@H]2CCC[C@@H]1CN(Cc1cc3n(n1)CCNC3)C2	5
CC(C)CNC(=O)C1Cn2ccnc2C2(CCN(c3ncccn3)CC2)O1 (stereo unspecified)	-38
CC1=NN(C(=O)c2ccc(Br)cc2)C(O)(c2ccccc2)C1 (stereo unspecified)	33
Cc1cc(C)c(NC(=O)Cn2ncc3c(N4CCN(c5ccccn5)CC4)ncnc32)c(C)c1	21
COc1ccc(-c2csc(CCN)n2)cc1	161
Cc1ccc(CN2CCOC3(CCN(c4ncccn4)CC3)C2)cc1	-47
COCC(=O)N1CCOCC2(CCC(CN(C)Cc3ccco3)O2)C1 (stereo unspecified)	-46
CCOC(=O)c1c(Cl)cc(C)cc1N1CCCC1	-52
CC(=O)[C@@]12OC(C)(c3ccccc3)O[C@@H]1C[C@H]1[C@@H]3CCC4=CC(=O)CC[C@]4(C)[C@H]3CC[C@@]12C (stereo partly specified)	-68
O=c1c(-c2ccccc2)c(O)nc2ccccn12	-24
C[C@H]1CN([C@@H](C)CO)C(=O)c2cc(NS(C)(=O)=O)ccc2O[C@@H]1CN(C)C	53
Cc1cc(C#N)ccc1NC(=O)C1=NOC2(CCCNC2)C1 (stereo unspecified)	-6
CC(C)CN1CCCN(c2nccc(-c3cnn(-c4ccccc4)c3)n2)CC1	31
COC[C@@H]1CCCN1Cc1cccc(C(=O)Nc2c(C)cnn2C)c1	73
COc1ccccc1N1CCN(CCN(C(=O)C2CCCCC2)c2ccccn2)CC1	20
Cc1nn(CCNC(=O)c2ccccc2C2CCNC2)c(C)c1Cl (stereo unspecified)	8
O=C(c1cn2ccsc2n1)N1CCC(CO)(CCOc2ccccc2)CC1	6
COc1cc(CN2CCOCC2)ccc1OCC(O)CN1CCOCC1 (stereo unspecified)	9
CC(=O)NCCCC(=O)NC(CCC(=O)OCc1ccccc1)C(=O)OCc1ccccc1 (stereo unspecified)	-3
FC(F)(F)c1cc2[nH]c(=S)[nH]c2cc1Cl	-93*
CON(C)Cc1csc(NC(=O)n2ccnc2)n1	3
Cc1nc(N)ncc1C(=O)N1CCC2(CCCN(C)CC2)CC1	-6
CC(=O)NC1CCN(CC2(O)CCNC2)CC1 (stereo unspecified)	-1
CCCCC/C=C\C/C=C\C/C=C\CCCCCCC(=O)O	13
Cc1nc(Cn2cnc(-c3nc(C(=O)NCc4ccc(Cl)cc4)c4ccccn34)c2)cs1	-18
Cc1nccc(NCc2cncc3c2CCN(C(=O)NC(C)C)C3)n1	-22
Cc1nn(C(c2ccccc2)C(O)(c2ccccc2)c2ccccc2)c(C)c1Br (stereo unspecified)	-67
CC1=C(C(=O)NCCCOC(C)C)C2(CCN(Cc3ccccc3)CC2)OC1=O	40
COCC(=O)N1CCC2(CC1)CN(Cc1ccccc1Cl)[C@@H](CO)c1[nH]c3cc(OC)ccc3c12	1
CCc1cnc(N2[C@H](C#N)[C@@H](c3ccc(-c4cccc(F)c4)cc3)[C@H]2CO)s1	0
CC12CCC(C(=O)N(CCCCN3CCN(c4ccccn4)CC3)C1=O)C2(C)C (stereo unspecified)	2
CN(Cc1nncn1C)c1ccc(C(=O)N2CCC(Cn3cccn3)CC2)cn1	-4
CNC(=O)CN1CCOCC12CCN(Cc1cnc[nH]1)CC2	i
Cc1ccc(C(NC(=O)CCc2c(C)nn(C)c2C)c2ccncc2)cc1 (stereo unspecified)	-5
CCCC#Cc1cnc2c(c1)C(=O)N([C@@H](C)CO)C[C@@H](C)[C@H](CN(C)C(=O)Nc1cc(F)ccc1F)O2	33

The closing two compounds of the part above come first, to join the parts:
SMILES	Tgondii IFNg
Cc1ccc(C(NC(=O)CCc2c(C)nn(C)c2C)c2ccncc2)cc1 (stereo unspecified)	-5
CCCC#Cc1cnc2c(c1)C(=O)N([C@@H](C)CO)C[C@@H](C)[C@H](CN(C)C(=O)Nc1cc(F)ccc1F)O2	33
Cc1ccc2c(n1)N(CCN(C)C)CCN(C(=O)c1ccno1)C2	49
Clc1cccc2c1CN(C1=NCCN1)C2	13&8
COCCN(C)C(=O)c1c2c(NCc3cccnc3)ncnc2n2ccccc12	-19
Cn1c2ccccc2c2c1cc(C(=O)N1CCCC(O)C1)n2-c1ncccn1 (stereo unspecified)	-8
